Assay outcomes (PubChem)
VACV E9 pol inh: blocks vaccinia virus processive DNA synthesis; in vitro processive DNA synthesis, absorbance read-out; active compounds read low; some inactives read as strong as hits; normalized absorbance, % (no concentration beside the values); hit rate 0.94% among 46,000; AID 493162;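 active = replicate mean up to 90% and picked by the depositor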;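 note: 100% = median of the test wells of a plate; 100 nL library stock went into each well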
Active calls of the source: *.

A first look, ten compounds:
structure	VACV E9 pol inh
O=C(O)c1ccccc1C(=O)c1cccs1	100.9
Cn1nnnc1SCC(=O)Nc1nccs1	103.9
O=C1/C(=C/C=C/c2ccccc2)SC(=S)N1c1cccc(F)c1	99.7
c1ccc(-c2nnc(CN3CCCCCC3)o2)cc1	102.3
COc1cc(OC)c(C(=O)CCC(=O)O)cc1OC	98.8
Cc1sc2c(c1C)C(=O)NC(/C=C/c1ccc3c(c1)OCO3)N2 (centres undefined)	99.1
O=C(CCNS(=O)(=O)c1ccc2[nH]c(=O)ccc2c1)NC1CCCC1	102.9
O=C(O)c1cccc(COCC(F)(F)F)c1	100.2
O=C(O)CSCC(=O)N1CCCc2ccccc21	91.5
Cn1c(=O)cc(SCC(=O)Nc2cccnc2)c2ccccc21	97.5

The listing, previewed entries included:
structure	VACV E9 pol inh
O=C(O)c1ccccc1C(=O)c1cccs1	100.9
Cn1nnnc1SCC(=O)Nc1nccs1	103.9
O=C1/C(=C/C=C/c2ccccc2)SC(=S)N1c1cccc(F)c1	99.7
c1ccc(-c2nnc(CN3CCCCCC3)o2)cc1	102.3
COc1cc(OC)c(C(=O)CCC(=O)O)cc1OC	98.8
Cc1sc2c(c1C)C(=O)NC(/C=C/c1ccc3c(c1)OCO3)N2 (centres undefined)	99.1
O=C(CCNS(=O)(=O)c1ccc2[nH]c(=O)ccc2c1)NC1CCCC1	102.9
O=C(O)c1cccc(COCC(F)(F)F)c1	100.2
O=C(O)CSCC(=O)N1CCCc2ccccc21	91.5
Cn1c(=O)cc(SCC(=O)Nc2cccnc2)c2ccccc21	97.5
S=c1[nH]nc(-c2ccncc2)n1C1CCCC1	100.8
CCCCc1c(O)c2cccc3c4ccccc4n(c1=O)c23	96.5
Cc1ccc(Sc2sc(=O)n(C)c2S(=O)(=O)c2ccc(C)cc2)cc1	96.1
O=C(CCN1CCc2ccccc2C1)Nc1ccc2c(c1)CCC2	106.1
CCN1CCN(c2nc(C)nc3sc4c(c23)CCC4)CC1	96.0
Oc1ccc(-c2cnc3ccncc3n2)cc1	100.3
CN(C)CCCNc1ncnc2sc3c(c12)CCCC3	89.4
N#Cc1ccsc1NC(=O)CSC1CCCCC1	91.5
CN(C)CC#CCN1CCCC2(CCOC(C)(C)C2)C1 (centres undefined)	101.7
ClCc1nc2ccccc2[nH]1	120.9
CC1CCCC(NC(=O)c2ccc3c(SCC(=O)O)c4c(nc3c2)CCC4)C1C (centres undefined)	98.9
O=C(NCC1OCCc2ccccc21)c1ccccc1Br (centres undefined)	98.0
CC1=C2C(=CO[C@H](C)[C@H]2C)C(=O)C(C(=O)O)=C1O	95.1
CCOc1ccc(-n2cc(-c3ccccc3)c3c(NC(C)C)ncnc32)cc1	102.6
CC(C)N(C(=O)COc1ncnc2ccccc12)c1ccccc1	102.5
CCOC(=O)C(C)Sc1nc(-c2ccc(OC)cc2)nc2c1c(=O)n(C)c(=O)n2C (centres undefined)	105.9
CN1C/C(=C\c2ccc(O)cc2)C(=O)/C(=C/c2ccc(O)cc2)C1	104.6
CCCCN1C(=O)C2C(C(=O)Nc3ccc(C(C)C)cc3)C3C=CC2(O3)C1C(=O)NC1CCCCC1 (centres undefined)	103.9
Cc1nnsc1-c1nnc(SCC(=O)N(c2ccccc2)C2CCCCC2)n1C1CC1	100.5
Cc1ccc(NC(=O)N2CCN(c3cnccn3)CC2)cc1	110.9
Cc1ccc(S(=O)(=O)N(CC(=O)NC2CC2)C2CCCCC2)cc1	100.4
NC[C@@H]1CCCN2CCCC[C@H]12	100.0
O=C(O)CCC(=O)c1ccc2ccccc2c1	102.1
N#Cc1ncn(-c2ccccc2Oc2ccccc2)c1N	101.8
FC(F)(F)c1cccc(-c2ccc(-c3nn4c(-c5ccco5)nnc4s3)o2)c1	119.4
O=C1Nc2ccccc2/C1=N/N1C(=O)CNC1=O	98.0
Cc1cc(=O)n2[nH]c(N3C(=O)c4ccccc4C3=O)nc2n1	97.3
Cc1ccc(Cc2cnc(N)s2)o1	95.8
Cc1nnc2c3cnn(-c4ccccc4)c3nc(C)n12	100.9
O=C(CSC1CCCCC1)c1ccccc1F	96.4
COC(=O)CSc1nnc(CNC(=O)c2ccccc2OC)n1C	98.7
CCOC(=O)C1=C(C)N(C)C(=O)N(C)C1c1ccccc1 (centres undefined)	98.6
CC1CCCC(C)N1C(=O)CSc1nc2ccccc2[nH]1 (centres undefined)	102.7
CSc1nc(N)n2nc(-c3ccccc3)cc2n1	96.7
COc1ccccc1N(CC(=O)Nc1ccccc1)S(C)(=O)=O	100.4
CNC(=O)Nc1cccc(-c2ccnc(C)n2)c1	107.1
O=C(O)CC(c1ccc(Cl)c(Cl)c1)N1Cc2ccccc2C1=O (centres undefined)	98.4
O=C(O)CCN1c2ccccc2Sc2ccccc21	92.1
CO[C@@]12[C@H](COC(N)=O)C3=C(C(=O)C(C)=C(N)C3=O)N1C[C@@H]1N[C@@H]12	99.8
O=C(/C=C/c1ccc2c(c1)OCO2)/C=C/c1ccc2c(c1)OCO2	99.6

Carrying on.
structure	VACV E9 pol inh
O=C(CCCn1c(SCC(=O)c2ccc(F)cc2)nc2ccccc2c1=O)NCc1ccccc1	100.7
CCc1ccc(N2C(=S)N(C(=O)c3cccs3)C3CC2(C)Oc2ccccc23)cc1 (centres undefined)	101.9
O=C(CCSc1nc(-c2ccco2)cc(C(F)(F)F)n1)N1CCCCC1	100.3
Cc1ccc2c(c1)c1c3n2CCN(C/C(=N/O)c2ccc(Br)cc2)C3CCC1 (centres undefined)	100.5
COc1nc(N2CCc3ccccc32)nc(N2CCc3ccccc32)n1	99.8
c1coc(-c2cn3c(n2)sc2ccccc23)c1	78.6
O=S(=O)(c1ccc(Cl)cc1)N(Cc1ccccc1)S(=O)(=O)c1ccc(Cl)cc1	102.7
O=C(OC1CCSC1)c1cc(C(F)(F)F)cc(C(F)(F)F)c1 (centres undefined)	103.7
Cc1ccc(-n2nnnc2S(C)(=O)=O)c(C)c1	103.4
CC1CCC(NS(=O)(=O)c2ccc3c(c2)oc(=O)n3C)CC1 (centres undefined)	98.4
O=C1OC(c2ccc3c(c2)CCC3)c2ccccc21 (centres undefined)	90.3
O=C(O)c1c[nH]c(=O)c2ccccc12	110.9
O=C(c1ccccc1O)N1N=C(C(F)(F)F)CC1(O)C(F)(F)F (centres undefined)	99.4
COc1ccc(N2C(=O)CS/C2=N/S(=O)(=O)c2ccc(F)cc2)cc1	78.8
O=C(Nc1nc2ccc3ccccc3c2s1)c1cccs1	96.4
O=C(O)/C(=C/c1ccc2c(c1)OCO2)NC(=O)c1ccccc1Br	99.8
O=C1CCCC2=C1C(c1ccccn1)C1=C(CCCC1=O)O2	117.2
c1ccc(-c2nc3cc(NCc4cccnc4)ccc3o2)cc1	100.2
COC(=O)C12CC3CC(C)(CC(C)(C3)C1)C2	107.8
CCCC(=O)Nc1ccc(OCC(O)CNC(C)C)c(C(C)=O)c1 (centres undefined)	99.9
CC1CCc2sc(NC(=O)COc3ccc(Cl)cc3)c(C(N)=O)c2C1 (centres undefined)	99.9
CC(=O)Nc1ccc(N2CC(C)(C)C2=O)cc1	100.8
COc1ccccc1OCCSc1nnnn1C1CCCCC1	100.0
N#CCn1c(=O)n(C2CCCCC2)c(=O)c2cccnc21	100.8
Cc1cccc(CN2C(=O)c3ccccc3Sc3ccc(C(=O)NC(C)C)cc32)c1	90.2

Random excerpt: two entries already listed.
structure	VACV E9 pol inh
O=C1OC(c2ccc3c(c2)CCC3)c2ccccc21 (centres undefined)	90.3
c1coc(-c2cn3c(n2)sc2ccccc23)c1	78.6

Further results follow.
structure	VACV E9 pol inh
O=C(Nc1ccc(N2CCOCC2)cc1)c1nc2ccccc2s1	100.8
CCN1C(=O)/C(=C/C=C2/CCCN2C)N(c2ccccc2)C1=S	98.8
O=C(Nc1c(-c2ccc(F)cc2)nc2ccccn12)c1ccccc1	98.9
CC(C)N(CCc1ccncc1)C(=S)NC1CCCCC1	98.2
Cc1ccc(N(CC(O)Cn2c3ccccc3c3ccccc32)S(=O)(=O)c2ccccc2)cc1 (centres undefined)	100.6
CC(C)C1Oc2cc3oc(=O)ccc3cc2/C1=N\O (centres undefined)	96.6
CCOC(=O)c1c(CC(C)C)csc1NC(=O)C(C)C	102.9
CC1CCCC(C)N1C(=O)Cc1cccs1 (centres undefined)	104.2
O=C1C(c2ccccc2)CCCC1c1ccccc1 (centres undefined)	105.4
CCOC(=O)C1C(=O)C=C(c2ccco2)CC1c1ccc(N(C)C)cc1 (centres undefined)	98.6
COc1ccc(OCCSc2nc3ccccc3n2C)cc1	99.8
NC1=NC(=O)CC(C(=O)Nc2cccc3ccccc23)S1 (centres undefined)	99.9
O=C(O)c1ccc(S(=O)(=O)N2CCCC3CCCCC32)cc1 (centres undefined)	91.9
CC(=O)N1CCN(C(=O)CNc2cc(C(F)(F)F)ccc2OCC(F)(F)F)CC1	100.5
N#Cc1ccc(Cl)cc1NC(=O)CSC(=O)c1ccccc1	97.1
O=C(O)c1cc(N=Cc2ccc(N3CCCC3)c(F)c2)ccc1O	100.0
CCCN(CCC)c1ncnc2c1cnn2-c1ccccc1	100.4
CN(Cc1ccccc1)C(=O)c1cc2c(Cl)nc3ccccc3c2s1	92.0
CCn1c(C(=O)N2CCCC(C(=O)NC(C)c3ccc4c(c3)OCCO4)C2)cc2sccc21 (centres undefined)	92.5
O=C(Nc1ccc(OCc2ccccc2)cc1)NC1CCCc2ccccc21 (centres undefined)	99.3
O=C(NCc1ccccc1C(F)(F)F)c1ccc2ccccc2c1	92.8
CCN(Cc1ccccc1)C(=O)Cn1c(=O)n(-c2ccc(C)cc2)c(=O)c2ccccc21	81.0
O=C(CC(=O)NCC1CCCO1)NCC1CCCO1 (centres undefined)	107.5
NC(=O)CN1C(=O)Cc2ccccc2C1=O	88.4
Cc1ccc(S(=O)(=O)N2N=NC3C4CC(C5CC=CC54)C32)cc1 (centres undefined)	100.1

The listing continues:
Compound,VACV E9 pol inh
O=c1c(=Nc2ccc(O)cc2)c(=O)c2ccccc12,91.0
COc1ccc(NC(=O)C2CCCN2c2cccc(C(F)(F)F)c2)cc1OC (centres undefined),105.5
CCc1c(C)sc(NC(=O)C2CC3CCC2C3)c1C(=O)OC (centres undefined),95.7
Cc1ccc(OCC(=O)O)c(-c2ccno2)c1,93.9
CC(C)(C)c1ccc2ccccc2[o+]1,102.0
O=C(CN1C(=O)CCc2ccccc21)NCc1ccccc1,102.5
CN(C(=O)CSCc1ccc(Cl)cc1)c1ccccc1,94.8
CCCNC(=O)Cn1ncc2c3ccccc3n(C)c2c1=O,101.0
Cc1ccc(OCc2nc(C#N)c(N3CC(C)OC(C)C3)o2)cc1 (centres undefined),103.6
COc1ccc(C2Sc3nncn3N2Cc2ccc(C#N)cc2)cc1 (centres undefined),100.6
CC(C)C1=NNC(=O)C1(C)C,106.4
CCc1ccc(CNC(=O)c2coc(=O)c3ccccc23)cc1,91.5
COc1ccc2oc(C#N)cc2c1,96.0
CC12CCC(C(=O)Nc3ncc(Cl)cc3Cl)(CC1=O)C2(C)C (centres undefined),99.8
C[C@](N)(Cc1ccc(O)c(O)c1)C(=O)O,96.9
COCC(=O)OCn1nnc2ccccc2c1=O,100.6
Cc1cc(N2C(=O)CCC2=O)no1,99.4
CCn1c(C)[n+](CC)c2ccc(Cl)cc21,89.7
Cc1cc(C)n2nc(SCC(=O)NCc3ccc(Cl)cc3)nc2n1,105.4
O=C(COC(=O)CCC1CCCC1)Nc1ccccc1Br,105.6
O=C(NC1CCCC1)c1cnc(N2CCCC2)nc1,99.2
N#C/C(=C(/O)c1ccc(C(=O)c2ccccc2)cc1)c1nc2ccccc2s1,100.8
O=C(Nc1nn[nH]n1)C1c2ccccc2Oc2ccccc21,92.7
O=C(NC1CCCc2ccccc21)C1CCCN(c2nnc(-n3cccc3)s2)C1 (centres undefined),93.1
CN1/C(=C\C(=O)c2ccccc2)C(C)(C)c2ccccc21,90.7
O=C(NCCSc1ccccc1)C1CCCN1S(=O)(=O)c1ccc2ccccc2c1 (centres undefined),99.5
O=C(O)CCN1C(=O)c2ccncc2C1=O,100.5
CCC1CCc2nc3sc(C(=O)NCCc4ccc(OC)cc4)c(N)c3cc2C1 (centres undefined),100.2
COc1ccc(CCN(C)CCc2ccc(OC)c(OC)c2)cc1OC,96.7
CCOc1ccc(-c2nnc3ccc(SCC)nn23)cc1,100.9
COC(C)OC(=O)Cn1c(=O)sc2cccc(Cl)c21 (centres undefined),100.5
CCOc1ccccc1NC(=S)NCC(C)CSc1ccc(C)cc1 (centres undefined),103.4
O=C(c1ccccc1)c1ccccc1C(=O)N1CCOCC1,101.0
CCNc1cc(N(C)C)c2noc3c2c1C(=O)c1ccccc1-3,72.4
COc1ccc2[nH]c3c(=O)n(Cc4ccc(C(=O)NCc5cccnc5)cc4)c(=S)[nH]c3c2c1,103.2
O=C(Cn1c(COc2ccccc2)nc2ccccc21)NCC1CCCO1 (centres undefined),105.2
O=C(Cc1cccc2ccccc12)Nc1ccc(S(=O)(=O)N2CCCC2)cc1,101.3
NC(COCc1ccccc1)C(=O)O (centres undefined),100.5
O=C(Nc1cccnc1)c1cc(-c2ccccc2)on1,92.9
COc1ccccc1OCc1nc(C#N)c(N(C)C)o1,107.8
O=C(NC(=O)N1CCOCC1)c1nnc(-c2ccccc2)o1,100.3
O=C(N1CCOCC1)C12CC3CC(C1)CC(C(=O)N1CCOCC1)(C3)C2,99.3
O=C(NCc1ccco1)/C(=C/C=C\c1ccccc1)NC(=O)c1ccccc1,94.7
O=C(COc1ccc(Cl)cc1Cl)OCC(=O)c1ccc(F)cc1,85.5
COc1ccc(-c2nc3cc(Cl)ccc3o2)cc1,92.0
Cn1c(=O)nc2n(-c3ccc(Cl)c(Cl)c3)c3ccccc3cc-2c1=O,101.3
COCCn1c(=NC(=O)c2cccs2)sc2cc(C(=O)OC)ccc21,104.5
CC1CC(C)CN(C(=O)c2cc(Nc3cccc(C(F)(F)F)c3)nc3ccccc23)C1 (centres undefined),104.0
O=S(=O)(Nc1cccc(Br)c1)c1cccs1,96.1

An excerpt, so the mix of outcomes need not match the whole.
